PrP UTR inh = inhibition of PrP 5' UTR reporter expression; cell-based PrP 5' UTR mRNA reporter, plate reader; inhibition, % (no concentration beside the values); hit rate 0.35% among 340,000; AID 488862;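 active means every replicate at 50% or more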;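 further: 0 = median of the neutral control wells; tested in H4 reporter cells; numbers are from one replicate; inactives centre near -14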
BJeLR viability = BJeLR cell viability loss | BJeLR (HRASV12) viability, CellTiter-Glo ATP luminescence, 48 h; reference of the scale not given here | inhibition, % (concentration not given with the values) | hit rate 0.17% among 300,000 | AID 1554;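 active means replicate mean above 50%; inconclusive means above 50% but judged a plate artefact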;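 further: 50 nL library stock added to about 25 µL; numbers are from one replicate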
RN4220 kill = S. aureus RN4220 growth inhibition | OD600, 16 h | hit rate 0.33% among 330,000 | inhibition, % (no concentration beside the values);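 active means z-score of -3 or lower and OD600 up to 0.18 on both plates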;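 further: plate controls were untreated cells for no effect and reference antibiotic for full effect; stock transfer was 100 nL into about 80 µL; one replicate is shown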
Mtb hypoxia inh = Mtb hypoxia fluorescent reporter inhibition | M. tuberculosis hypoxia-regulated fluorescent reporter, fluorescence | fluorescence inhibition, % (concentration not given with the values) | hit rate 0.1% among 300,000 | AID 1159583;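 active means 35 to 45% if threefold the growth effect, above 45% if 1.5-fold the growth effect; inactive means the rest, general growth blockers included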;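 further: wells of about 50 µL received 100 nL stock; 0% = vehicle wells and 100% = reference inhibitor wells; whole bacteria with a GFP reporter of the hypoxia response; strong numbers were not always called active; many hits fall short of the cut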
Autofluor counter = counter-screen for toxin protease inhibitors: compound fluorescence. compound autofluorescence counterscreen, microsphere flow cytometry; active compounds read high. fluorescence intensity (concentration not given with the values). hit rate 3.1% among 360,000. AID 624483;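 active means at least 3 SD above the mean of all compounds, about 16000 in these data; inconclusive means too few beads counted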;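 further: 100 nL of 1 mM stock went into each well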
ugtP null kill = compounds lethal to S. aureus RN4220 ugtP deletion mutant; growth inhibition, % (concentration not given with the values); hit rate 0.54% among 330,000; AID 1259309; OD600 growth, 16 h; some inactives read as strong as hits;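 active means z-score under -3 and OD600 up to 0.15 on both plates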;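 further: plate controls were untreated wells for no effect and antibiotic for full effect; wells of about 80 µL received 100 nL stock; the first replicate is given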
Mtb hypoxia inh growth = recorded beside Mtb hypoxia inh, whose call it bears; growth inhibition, %; measured here: M. tuberculosis growth (absorbance);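 0% = vehicle and 100% = reference antibiotic; read after six days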
The depositor's hits bear a star; ? = inconclusive; / = no result given. This is a random part of the collection; any-hit rate near 3.9%.

No. | mol | PrP UTR inh | BJeLR viability | RN4220 kill | Mtb hypoxia inh | Mtb hypoxia inh growth | Autofluor counter | ugtP null kill
1 | CCCSc1cc(N2CCN(C)CC2)nc(-c2ccc(OC)cc2)n1 | -21.5 | -4.4 | -7.6 | 5.2 | 12.5 | 3238 | 99.7*
2 | CCOc1cc(C(=O)Nc2ccc(S(=O)(=O)N3CCCCC3)cc2)ccc1OCC(=O)N1CCOCC1 | -21.2 | 1.6 | / | / | / | 6086 | /
3 | Nc1ccc(-c2c3ccc(=O)cc-3oc3cc(O)ccc23)cc1C(=O)O | -17.7 | 2.0 | / | / | / | 9781 | /
4 | Cc1nc2c(c(=O)[nH]1)C(c1ccc([N+](=O)[O-])cc1)c1c(c3ccccc3oc1=O)O2 (stereo unspecified) | / | 1.6 | -0.8 | 9.4 | 1.6 | / | 1.0
5 | N#Cc1ccc(C(=O)Nc2nc(-c3cccs3)c(C(=O)C(F)(F)F)s2)cc1 | -14.8 | 34.9 | / | / | / | 4974 | /
6 | Cc1ccc(S(=O)(=O)Nc2ccc3ccccc3c2)cc1 | 2.5 | / | -1.7 | 4.7 | 4.7 | 3935 | 12.5
7 | O=C(NNc1nc2c(F)cccc2s1)c1cc(=O)c2ccccc2o1 | -10.8 | 3.3 | / | / | / | 5479 | /
8 | CN1CCN(S(=O)(=O)c2ccc(NC(=O)c3ccc(F)cc3)cc2)CC1 | -3.8 | -0.2 | 5.1 | 10.0 | 10.0 | ? | 2.2
9 | COC(=O)c1ccc(-c2nc(O)c(C)s2)cc1 | -10.9 | -0.9 | -1.2 | 1.1 | 13.8 | 2531 | -7.1
10 | O=C(c1ccncc1)N1CCN(S(=O)(=O)c2cccc(Cl)c2)CC1 | -17.8 | 3.5 | 5.4 | 3.7 | -4.9 | 6486 | 8.3
11 | Nc1nc(Nc2ccccc2)nc2c1ncn2[C@@H]1O[C@H](CO)[C@@H](O)[C@H]1O | 3.3 | 4.2 | / | / | / | 6011 | /
12 | CC(C)(C)c1csc(Sc2ncccc2[N+](=O)[O-])n1 | -8.9 | -1.3 | 1.7 | 1.2 | -5.0 | 3279 | 12.5
13 | Cc1ccccc1Cn1c2ccccc2c2cn[nH]c(=O)c21 | -3.2 | -3.6 | -4.9 | 6.7 | 8.8 | 3245 | -0.1
14 | Cc1noc(NS(=O)(=O)c2ccc(NC(=O)c3oc4ccc(Cl)cc4c3C)cc2)c1C | -28.3 | -5.5 | 12.0 | -1.6 | -3.1 | 5809 | -2.0
15 | COC(=O)c1ccc(C2CC(=O)NC3=C2C(=O)CCC3)cc1 (stereo unspecified) | -17.3 | 7.4 | -0.4 | / | / | 2468 | 6.6
16 | Nc1ccc(N=Nc2ccccc2O)c(N)c1 | / | 3.8 | -3.5 | 14.2 | -0.3 | / | -3.3
17 | COc1ccc(CC(=O)NCc2ccccc2Cl)cc1S(=O)(=O)N1CCOCC1 | -18.6 | 7.3 | 2.8 | 6.3 | 17.0 | 23297* | -0.1
18 | Cc1sc2nc(CSCC(=O)N(C)CC(=O)Nc3ccc(F)cc3)[nH]c(=O)c2c1C | -36.2 | 4.5 | 3.6 | 9.8 | -2.3 | 4983 | 7.3
19 | COc1ccc(C)cc1NC(=O)CC(C)=NNC(=O)Cc1cccc2ccccc12 | / | / | -1.8 | 6.1 | 0.2 | / | 2.8
20 | NC1=NCc2ccccc21 | -19.0 | -2.7 | 3.3 | 9.0 | 4.7 | 12492 | -0.3
21 | Cc1sc(NC(=S)Nc2ccc(F)cc2)c(C(N)=O)c1C | -29.9 | -9.1 | / | / | / | 4487 | /
22 | Nc1nc(Cl)cc(N2CCC(c3cc(-c4ccc(Cl)cc4)n[nH]3)CC2)n1 | -8.3 | 6.5 | 28.3 | -8.4 | -7.1 | 8406 | 94.2*
23 | O=C(OCc1nnc(-c2ccccc2)o1)c1cc(S(=O)(=O)N2CCOCC2)ccc1F | -20.4 | 0.6 | 0.1 | 7.2 | 2.0 | 5593 | -0.9
24 | COc1ccc(C(C(=O)NC2CCCC2)N(C(=O)c2ccco2)c2ccccc2OC)cc1 (stereo unspecified) | -10.4 | -1.4 | -2.0 | 6.4 | 7.1 | 3367 | 3.1
25 | CNC(=O)C(=O)NCC(c1cccs1)S(=O)(=O)c1ccc(F)cc1 (stereo unspecified) | -4.5 | -1.4 | 1.4 | -2.5 | 3.4 | 5537 | 1.5

Record cards, from the list above. Screens in order: PrP UTR inh	BJeLR viability	RN4220 kill	Mtb hypoxia inh	Mtb hypoxia inh growth	Autofluor counter	ugtP null kill
Shown for `COc1ccc(CC(=O)NCc2ccccc2Cl)cc1S(=O)(=O)N1CCOCC1` = -18.6	7.3	2.8	6.3	17.0	23297*	-0.1
Shown for `COc1ccc(C)cc1NC(=O)CC(C)=NNC(=O)Cc1cccc2ccccc12` = /	/	-1.8	6.1	0.2	/	2.8

Additional structures:
No. | mol | PrP UTR inh | BJeLR viability | RN4220 kill | Mtb hypoxia inh | Mtb hypoxia inh growth | Autofluor counter | ugtP null kill
26 | CCc1nc(NCCC(C)C)c(C#N)c2c1CCCC2 | -1.4 | -3.8 | 0.5 | 1.9 | 4.4 | ? | 87.8*
27 | N#Cc1cccc(S(=O)(=O)NCC(=O)NCc2ccc3c(c2)OCO3)c1 | -12.1 | / | 4.2 | 7.7 | -2.7 | 7868 | 1.4
28 | CNS(=O)(=O)c1cc(OC)c(OC)cc1CC(=O)OC | -14.1 | 1.4 | -4.0 | -8.9 | -8.9 | 3755 | -5.9
29 | COC(=O)[C@]12C(=O)C(C)=C(O)[C@@]1(C)C(C)=CC1[C@@]34CC[C@@H](OC(C)=O)C(C)(C)C3C(C[C@]12C)OC4=O (stereo partly specified) | 2.4 | -4.0 | -0.4 | / | / | 3972 | -7.1
30 | COc1ccccc1C(=O)NN=Cc1ccc(Cl)s1 | / | / | 2.9 | 12.8 | 3.8 | / | -0.7
31 | CC1CCCCC1NCC(=O)NCc1ccc(F)cc1 (stereo unspecified) | -25.6 | -5.0 | -6.2 | 16.4 | 1.1 | 3237 | 2.7
32 | CCSc1nc(C)nc2c1oc1ccccc12 | 0.3 | -0.6 | 12.4 | 14.2 | 3.1 | 2777 | -15.7
33 | O=c1cnnc(Nc2ccc(Cl)c(C(F)(F)F)c2)[nH]1 | 14.0 | 5.6 | 5.9 | -1.3 | 5.6 | 2111 | 2.0
34 | Cc1ccc(S(=O)(=O)N(C#N)c2nc(C)cc(C)n2)cc1 | -5.8 | -3.7 | -0.1 | -1.0 | 16.2 | 4475 | -0.4
35 | COc1ccc2nc(SC(C)C(=O)NC3CCCC3)[nH]c2c1 (stereo unspecified) | -10.7 | / | -2.7 | 1.6 | 13.8 | ? | 1.8
36 | C=C(C)CNC(=S)N/N=C/c1ccc(N2CCOCC2)cc1 | -20.9 | 6.9 | / | / | / | 2407 | /
37 | CCN(CC(=O)NCCN1CCOCC1)S(=O)(=O)c1ccc(F)cc1 | 4.6 | 5.2 | -3.3 | 1.9 | 5.6 | 3879 | 7.9
38 | CN(C(=O)CCN1C(=O)/C(=C/c2ccccc2F)SC1=S)C1CCS(=O)(=O)C1 (stereo unspecified) | -5.6 | 8.7 | 7.2 | 10.8 | 7.6 | 5777 | 9.8
39 | CC(C)N1C(=O)C2(OCCCO2)c2cc(Br)ccc21 | -19.8 | 5.3 | 5.6 | -3.2 | -0.5 | 4302 | 5.4
40 | Cc1cccnc1NC(=O)C1CCN(S(=O)(=O)c2ccc3c(c2)CCC(=O)N3)CC1 | -5.5 | -0.6 | 3.9 | / | / | 5269 | 8.4
41 | CN(C)S(=O)(=O)c1cc(NC(=O)CNCc2ccc(F)cc2)ccc1Cl | -15.1 | -4.9 | 2.3 | 4.5 | -1.5 | 2977 | -2.7
42 | Brc1ccc2ncc(Br)cc2c1 | -23.9 | 0.5 | 4.8 | -1.5 | -1.7 | 2240 | -3.5
43 | CCC(C)Sc1nc2c(c(=O)[nH]1)C(c1cccs1)C1=C(CCCC1=O)N2 (stereo unspecified) | -5.4 | 8.7 | 6.5 | -9.7 | 11.3 | 5872 | -18.9
44 | CCOc1cc2c(C)cc(=O)oc2cc1Cl | -1.9 | 2.4 | 5.6 | 1.6 | 3.6 | 8384 | 3.6
45 | CCOC(=O)c1c(C)c(C(=O)NCc2ccco2)c(C)n1CC | -46.0 | 4.1 | -0.7 | 6.8 | -2.7 | 2155 | 7.2
46 | Nc1ncnc2nc(SCc3ccccc3)[nH]c12 | 6.4 | -0.4 | 4.0 | -2.9 | 1.9 | 2882 | 1.3
47 | CCOP(=O)(OCC)c1cc(CC)ccc1O | -12.3 | -7.3 | 1.7 | 14.9 | 5.4 | 4134 | 0.1
48 | CC(=O)c1ccc(NC(=O)CCc2c(C)nn(-c3ccc(N4CCOCC4)nn3)c2C)cc1 | -19.8 | -8.4 | 0.1 | 3.7 | 4.3 | 5662 | 5.4
49 | CCCCc1ccc(NC(=O)COc2ccc(C(=O)Nc3ccccc3C)cc2)cc1 | / | -13.4 | 0.7 | -2.1 | 5.8 | / | 3.5
50 | Cc1ccc(S(=O)(=O)N2CCOCC2)cc1C(=O)c1nccn1C | -18.1 | -1.6 | 5.4 | 12.2 | -1.5 | 4489 | 8.2
51 | O=C1C2Sc3[nH]c(=O)sc3C(c3ccccc3)C2C(=O)N1c1ccccc1 (stereo unspecified) | -6.7 | 5.0 | 13.5 | 2.3 | 3.6 | 3147 | -0.7
52 | CCOc1ccc(-c2cc(C(=O)OC)[nH]n2)cc1 | -37.7 | -5.2 | 79.2 | 12.4 | -1.7 | 5387 | 5.9
53 | CCN1C(C)=C(C)S/C1=C1\SC(=S)N(C2CCCCC2)C1=O | -17.2 | 6.1 | / | / | / | 2309 | /
54 | Cc1cccc(/C=C2/SC(=O)N(Cc3ccccc3Cl)C2=O)n1 | -3.4 | -1.0 | 1.7 | -4.4 | 4.6 | 7825 | -1.4
55 | Cc1cccc(CN2CCN(Cc3ccc4nonc4c3)CC2CCO)n1 (stereo unspecified) | 1.1 | -1.2 | 0.0 | 3.0 | 2.6 | 3508 | 0.6
56 | O=C(CNC(=O)c1ccc(Br)o1)Nc1ccc(N2CCCCCC2)cc1 | -7.3 | / | -5.3 | 8.2 | 0.0 | 5259 | 0.0
57 | Cn1c(=O)[nH]c(=O)c2[nH]c(CN3CCN(C(=O)c4ccco4)CC3)nc21 | -12.8 | -1.9 | 6.5 | 3.9 | 9.0 | ? | 12.3
58 | COc1c2occc2c(OC)c2c(=O)cc(C(F)(F)C(F)(F)F)oc12 | 0.1 | -8.6 | 2.0 | 7.2 | 7.0 | 8302 | 3.2
59 | O=C(O)CCC(=O)N1N=C(c2ccccc2)CC1c1ccc2nccnc2c1 (stereo unspecified) | -8.0 | 9.3 | 0.9 | -4.9 | 4.5 | 2366 | 1.6
60 | O=C(CN1C(=O)NC2(CCCCC2)C1=O)N1CCN(c2ncccn2)CC1 | -7.5 | / | 3.8 | 5.0 | 3.4 | ? | 4.4
61 | O=C(COC(=O)c1ccc(S(=O)(=O)N2CCc3ccccc3C2)cc1)NC1CCS(=O)(=O)C1 (stereo unspecified) | -11.9 | -10.9 | 1.8 | -13.5 | -13.4 | 2119 | -4.5
62 | O=C(CSc1nc(-c2ccccc2)cc(C(F)(F)F)n1)NCc1ccco1 | 4.8 | 0.0 | 1.4 | -4.6 | 0.3 | 8486 | 18.3
63 | O=C(COC(=O)c1ccc(Br)cc1)NC(=O)NCc1ccccc1 | -16.2 | / | 0.4 | 11.1 | 2.8 | 3400 | 2.6
64 | Cc1n[nH]c(=S)n1N=Cc1ccc(OCc2ccc(Cl)cc2)cc1 | / | / | 3.9 | 7.0 | -0.3 | / | -15.4
65 | COc1ccc(CN2C(=NC(=O)C3CC3)SC3CS(=O)(=O)CC32)cc1OC (stereo unspecified) | 2.1 | 2.4 | 2.5 | -1.5 | 5.8 | 5432 | -0.2
66 | Cc1ccc(C=NNC(=O)c2cccc(S(=O)(=O)Nc3ccccc3Cl)c2)s1 | / | / | 10.5 | 12.0 | 11.5 | / | -1.2
67 | Cc1ccccc1Nc1nc(N)nc(CSc2nncn2C)n1 | -12.4 | -4.6 | 2.5 | 13.8 | 6.2 | 4959 | 0.3
68 | CC1CCN(CCOc2cc(Cl)ccc2Cl)CC1 | -21.6 | 1.1 | 0.3 | 5.9 | 6.8 | 10212 | 5.8
69 | CN(C)c1ccc(C=NNC(=O)c2cccc(C(=O)NN=Cc3ccc(N(C)C)cc3)n2)cc1 | / | / | -0.3 | -9.2 | 7.2 | / | 3.9
70 | CCN1CCN(C(=O)c2[nH]c3ccc(OC)cc3c2C)CC1 | -15.2 | -3.3 | 2.0 | 13.8 | 7.6 | 3858 | 2.0

Screening results as filed in PubChem.
